Mtb growth – M. tuberculosis H37Rv growth inhibitors, H37Rv strain (AID 1626) | M. tuberculosis H37Rv growth inhibition; higher % means a stronger effect | inhibition, % at 10 µM; hits with a dose series show IC50 in µM | hit rate 0.95% among 220,000;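 active means confirmed in a dose series; inconclusive means inhibition above 80% but not taken into the dose series; inactive means below 80% or under 30% at every dose of the series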;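 further: bacteria incubated seven days before Alamar blue readout; 0% = bacteria only wells and 100% = bacteria with antibiotic wells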
Mtb betalactam – beta-lactam sensitization of Mtb H37Rv. M. tuberculosis H37Rv growth with meropenem, percent inhibition; hits of this screen are not shown here. inhibition, % at 25 µM. hit rate 0.27% among 330,000;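 active means about 74% or more and at least 40 points above the plate without the antibiotic, then above 30% in a dose series; inconclusive means first-round hits that could not be retested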;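 further: growth measured after seven days incubation then overnight dye step; 0% = bacteria only wells and 100% = bacteria with antibiotic; twin plates without the antibiotic show which effects depend on it; some results filed as inactive read as strong as hits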
Arbovirus inh – antivirals against arbovirus infection; arbovirus infection cell-based antiviral screen; inhibition, % at 10 µM; hit rate 0.37% among 200,000;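 active means inhibition from about 30%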;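 further: bluetongue infection of BSR cells; cell survival read as ATP light after 72 h; 0% = infected wells without compound and 100% = uninfected wells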
RecA splice inh – Mtb RecA intein splicing inhibition; P9WHJ3; cell-free RecA intein splicing, fluorescence; inhibition, %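 (about 9 µM by stock and volumes)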; hit rate 0.75% among 290,000; AID 2221; in the data active means inhibition above about 30%; inconclusive means no clear call, values can overlap the other calls;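 further: 0% = vehicle wells and 100% = reference inhibitor control wells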
Target sequence (P9WHJ3 whole entry, looked up, canonical isoform): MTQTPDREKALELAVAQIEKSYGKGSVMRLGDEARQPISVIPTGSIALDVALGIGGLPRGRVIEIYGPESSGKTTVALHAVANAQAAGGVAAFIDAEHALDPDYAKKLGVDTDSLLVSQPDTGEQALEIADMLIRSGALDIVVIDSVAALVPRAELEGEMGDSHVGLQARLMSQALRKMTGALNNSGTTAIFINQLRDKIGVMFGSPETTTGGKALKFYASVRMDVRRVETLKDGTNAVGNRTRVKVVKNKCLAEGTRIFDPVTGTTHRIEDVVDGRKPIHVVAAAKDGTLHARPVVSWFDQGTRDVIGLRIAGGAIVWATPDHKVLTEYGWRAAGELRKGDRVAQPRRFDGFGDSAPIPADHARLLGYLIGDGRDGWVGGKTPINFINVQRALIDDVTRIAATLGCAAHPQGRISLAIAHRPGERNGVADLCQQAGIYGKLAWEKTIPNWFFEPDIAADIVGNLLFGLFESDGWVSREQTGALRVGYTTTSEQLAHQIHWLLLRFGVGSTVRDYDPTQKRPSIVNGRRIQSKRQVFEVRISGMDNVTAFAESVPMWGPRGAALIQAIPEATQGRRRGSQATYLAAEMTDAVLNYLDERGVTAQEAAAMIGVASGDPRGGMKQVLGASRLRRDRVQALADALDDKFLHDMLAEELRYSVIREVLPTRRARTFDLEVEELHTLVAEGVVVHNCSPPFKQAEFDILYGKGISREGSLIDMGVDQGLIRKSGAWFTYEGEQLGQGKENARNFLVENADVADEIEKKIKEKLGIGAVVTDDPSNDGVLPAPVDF
YopH inh – inhibitors of Yersinia enterocolitica YopH tyrosine phosphatase; hit rate 0.16% among 140,000; fluorescence Ex485/Em525; inhibition, %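 (about 10 µM by stock and volumes)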;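 active means inhibition of 50% or more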;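 further: controls were vehicle for no effect and minimum signal wells for full effect; inactives centre near -20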
Active calls of the source: *; ? = inconclusive; . = no result given; & = joins results of further samples. A portion of the library; rates above refer to the full screens.

SMILES	Mtb growth	Mtb betalactam	Arbovirus inh	RecA splice inh	YopH inh
CCc1nnc(N2C(=O)c3ccccc3C2(O)c2ccccc2)s1 (stereo not given)	2%	-2	.	-4.8	.
CC(C)CN1CCN(Cc2nc(C(C)C)cs2)CC1CCO (stereo not given)	-7%	-5	-4	0.9	.
COc1ccc(CCNC(=O)CSCc2ccc(F)cc2)cc1OC	-4%	-6	-2	0.1	-20
COc1ccc(-c2cc3cc(OC)c(OC)cc3cn2)cc1OC	.	-7	.	1.4	.
COc1ccc(OC)c(C(=O)c2ccc(C(=O)N3CCN(Cc4csc(C)n4)CC3)cc2)c1	-4%	-5	2	2.2	.
O=C(Nc1ccc(N2CCN(C(=O)c3ccccc3)CC2)cc1)c1ccc([N+](=O)[O-])o1	<0.2µM*	.	-31	-1.3	.
COc1ccc(CC(=O)O)cc1O	-2%	-6	3	-6.7	.
COc1ccc(Nc2ccc(N3C(=O)CC(C)C3=O)cc2[N+](=O)[O-])cn1 (stereo not given)	-7%	-3	-1	2.5	.
Cc1ccc(/C=N/n2c(-c3ccncc3)n[nH]c2=S)cc1	-1%	.	10	0.1	-33
COC(=O)Cc1c(C)nc2nc(NCc3ccccc3OC)[nH]n2c1=O	-1%	4	5	1.5	-126
C=CCN(c1ccc(C(=O)Nc2ccc(NC(C)=O)cc2)cc1)S(C)(=O)=O	-11%	3	-9	-2.7	.
Cc1ccccc1N1C(=S)NC2c3ccccc3OC1(C)C2C(=O)N(C)C (stereo not given)	-9%	-4	5	0.8	.
COc1ccc2nc(C)cc(SCC(=O)O)c2c1	2%&-6%	-6&0	-3&5	0.9&-0.2	-43&-56
CCc1ccc(-n2c(=O)c3ccccc3n(CC(=O)NCc3ccco3)c2=O)cc1	7%	-3	3	-0.6	.
CCCCCn1c(=O)c(C(=O)Nc2nc(CC(=O)OCC)cs2)c(O)c2ccccc21	?	100	16	1.7	.
O=C(c1cccs1)N(c1cccc(Cl)c1)C1C=CS(=O)(=O)C1 (stereo not given)	5%	5	10	1.0	.
O=C(CCSc1ccccc1)N1CCN(C(=O)c2ccco2)CC1	-5%	4	5	-0.2	-5
COc1ccc(-c2[nH]ncc2C=O)cc1OC	2%	-8	-1	-2.2	.
CC(Sc1ccccc1)C(=O)N1CCN(S(=O)(=O)c2ccccc2)CC1 (stereo not given)	.	-1	.	3.5	.
CSc1ccc(S(=O)(=O)N2CCC(C(=O)NCc3ccco3)CC2)cc1	.	-1	.	-1.2	.
CC1(C)CC(=O)C2=C(C1)N(c1ccccc1)C(=O)CC2c1ccc(O)cc1 (stereo not given)	-5%	-2	8	-2.1	.
Cc1cnn(C(=S)NCCc2ccccc2)c1	2%	5	-8	-1.4	24
O=C(CSc1nc2ccccc2[nH]1)Nc1nc(-c2ccccc2)c(-c2ccccc2)o1	-3%	-5	5	15	-24
O=S(=O)(c1cccc(C(F)(F)F)c1)N1CCCC1c1cccnc1 (stereo not given)	-1%	-6	.	0.1	.
COc1ccc(N2C(=O)CC(N3CCC(O)(c4ccc(Cl)cc4)CC3)C2=O)cc1 (stereo not given)	-13%	-8	4	-2.3	-22
Additional records follow:
SMILES	Mtb growth	Mtb betalactam	Arbovirus inh	RecA splice inh	YopH inh
c1ccc(-c2noc(-c3cccc4ccccc34)n2)cc1	10%	.	8	2.7	-39
COC(=O)CCCCC1SCC2NC(=O)NC21 (stereo not given)	0%	-4	1	-3.5	.
CCOC(=O)c1[nH]c(C)c(C(=O)OCC(=O)N2c3ccccc3CC2C)c1C (stereo not given)	-3%	-12	3	2.7	11
CC(C)(C)c1cnnn1-c1ccc(NC(=O)c2ccc3c(c2)OCO3)cc1	8%	52	5	0.4	-60
Cc1c(C(=O)O)sc(=S)n1-c1ccccc1	0%	7	-4	1.1	-63
CSc1nc(C)cc(C)c1C(N)=O	0%	-6	0	0.1	-3
COc1ccc(NS(=O)(=O)c2cc3c(cc2C)N(C(C)=O)CCO3)cc1	.	-1	.	0.9	.
Cc1cccc(C)c1NC(=O)C(Cl)C(=O)c1ccccc1 (stereo not given)	.	11	.	11	.
CCCCNC(=O)CCn1c(=O)c2ccccc2n(CC(=O)NCCc2ccc(OC)c(OC)c2)c1=O	1%	-3	8	0.2	.
Cc1ccc(C)c(N2CCN(C(=O)CCCn3c(=O)c4cccn4c4cccnc43)CC2)c1	.	31	.	15	.
CC(C)c1ccc(OCC(=O)N2CCCCCC2)c(Br)c1	4%	1	0	5.3	.
Cc1cc(NC(=O)c2cnn3c(C(F)F)cc(C4CC4)nc23)no1	6%	-14	0	-2.1	-20
CCOc1ccccc1NC(=O)CSCC(=O)Nc1ccccc1	-14%	-2	12	2.5	-4
CN1CCN(C(=S)Nc2cccc(Cl)c2)CC1	-4%	-5	6	-5.3	-29
COc1ccc(-c2nc3ccc(C(=O)N4CCC5(CC4)OCCO5)cc3nc2-c2ccc(OC)cc2)cc1	.	91	.	-22	.
CCCc1cc(=O)oc2c(CN(CC)CC)c(O)c(Cl)cc12	5%	-4	.	-139	.
O=C(Nc1ccccc1)NC1(C(=O)NCc2ccc3c(c2)OCO3)CCCCC1	-8%	4	6	-4.8	-22
CCN(CC)CCOc1ccc2c(c1)C(=NNC(=O)c1ccccn1)c1cc(OCCN(CC)CC)ccc1-2	?	96	-35	5.0	-38
Cc1ccc(NC(=O)c2ccc(CSc3nnc(C)s3)cc2)cc1	42%	89	-2	-0.4	-18
Cc1nc(Cc2nnc(SCC(=O)Nc3c(C)cccc3C)o2)cs1	.	-10	.	4.0	.
Cc1ccc(C)c(Oc2coc3cc(OCC(=O)Nc4ccccc4C(C)C)ccc3c2=O)c1	26%	0	-7	5.7	-21
COc1cc(-c2nnc(-c3ccncc3)o2)ccc1OCc1ccccc1	-3%	9	-2	.	14
COc1cc(NC(=O)Nc2cccc3cccnc23)cc(OC)c1OC	.	9	.	-0.8	.
COc1ccc([C@H]2/C=C\CN(C(=O)c3ccc(C)cc3)[C@@H](C)C(=O)N2Cc2ccc(F)cc2)cc1	2%	10	.	14	.
COc1ccc(/C=N/NC(=O)CCOc2ccccc2C)cc1OC	61%	9	3	0.9	-10
Remaining list, next part
SMILES	Mtb growth	Mtb betalactam	Arbovirus inh	RecA splice inh	YopH inh
CC12CCC(C(=O)N(CC(O)CN3CCN(Cc4ccccc4)CC3)C1=O)C2(C)C (stereo not given)	7%	4	.	0.5	.
CCCCc1c(C)nc2c(OC)cccc2c1SCCC(=O)O	-5%	6	3	4.0	-36
CN(C)CCCNc1nc2sc3c(c2c(=O)n1CCc1ccccc1)CCCCC3	76%	96	.	0.2	.
CCOc1ccccc1-n1c(CNc2ccc(F)cc2)nnc1SCC(=O)NCc1ccco1	-1%	-7	-3	1.4	7
O=C(NCCN1CCOCC1)c1ccccc1-c1ccccc1	-8%	-6	16	1.7	-6
COCCNC(=O)c1ccccc1NC(=O)CN(c1ccc2c(c1)OCO2)S(C)(=O)=O	-5%	-7	-9	3.5	-42
Cc1nn(Cc2ccccc2)c(C)c1C(=O)OCC(=O)Nc1cccc(S(N)(=O)=O)c1	-5%	-4	-3	0.4	.
Cc1cc(C)cc(C(=O)NC(=S)Nc2ccc(-c3cc4ccccc4oc3=O)cc2)c1	4%	-2	-24	-4.2	-1
COC(=O)/C(N=Nc1c(C)n(C)n(-c2ccccc2)c1=O)=C(\C)O	-12%	0	-9	-1.6	-18
C=CCN1C(=O)C(CC(=O)O)SC1=Nc1ccc(N=Nc2ccccc2)cc1 (stereo not given)	2%	6	16	4.6	.
Cc1cccc(CNC(=O)C2CCC(=O)N(C3CCCCCC3)C2)c1 (stereo not given)	.	?	.	1.5	.
COc1ccccc1C(=O)NC(=S)Nc1ccc(NC(=O)c2ccco2)cc1	2%	-9	2	-0.1	.
O=C(NCC1CCCO1)c1cccc(NS(=O)(=O)c2ccccc2)c1 (stereo not given)	.	-1	.	-0.6	.
NS(=O)(=O)c1ccc(NC(=O)COC(=O)c2cn(-c3ccccc3)nc2-c2ccc(F)cc2)cc1	-2%	2	-4	-1.4	-16
N#Cc1ccccc1NC(=S)Nc1ccc(F)cc1	0%	-8	3	0.1	.
CC1CCN(C(=O)C2CCCN(c3ncnc4c3nc3n4CCCCC3)C2)CC1 (stereo not given)	.	-7	.	0.0	.
Cc1nc2ccccc2c(=O)n1/N=C/c1cc(Br)ccc1O	.	1	.	1.1	.
COc1cc(Br)c(Br)c(Br)c1N	-5%	-8	.	3.3	.
Cc1ccc(CN2C(=O)CCC2C(=O)NCCN2CCOCC2)cc1 (stereo not given)	-3%	-12	1	-0.1	-15
COC(=O)c1c[nH]n2c(=O)cc(C)nc12	-8%	-6	4	1.4	-27
CCc1sc(NS(C)(=O)=O)nc1-c1ccccc1	-2%	-2	6	3.7	-47
CCOc1ccc2nc(-c3ccccc3)[nH]c2c1	-4%	-1	-11	-2.8	-27
COc1cccc(C(=O)NC(=S)Nc2ccc3c4c(cccc24)CC3)c1	15%	-5	10	-0.2	-33
CCn1c(/C=C/c2ccc(O)cc2)nc2ccccc2c1=O	.	5	.	-1.9	.
Cc1nc2ccccn2c1-c1ccnc(=S)[nH]1	-11%	2	.	4.4	.
(continued)
SMILES	Mtb growth	Mtb betalactam	Arbovirus inh	RecA splice inh	YopH inh
Cc1ccccc1C(=O)NC(=S)Nc1ccc(N2CCOCC2)cc1	0%	-3	-7	-2.3	.
CCN(CC)C(=O)CC(c1cc(OC)c(OC)c(OC)c1)c1c(OC)cc(OC)c2c(-c3ccccc3)cc(=O)oc12 (stereo not given)	-14%	29	.	16	.
O=S(=O)(NCc1cccs1)c1cccc(S(=O)(=O)N2CCCCC2)c1	-2%	-11	2	1.6	-37
COc1ccc(F)cc1C(=O)C1CCCN(C(=O)Cc2c(C)noc2C)C1 (stereo not given)	-2%	-11	0	0.1	.
COc1cccc(NS(=O)(=O)c2ccc3[nH]cc(C(=O)NCCN4CCOCC4)c(=O)c3c2)c1	.	-9	-1	0.7	-12
CCN1CCN(C(=S)c2ccc(Cl)c(Cl)c2)CC1	-5%	1	4	-0.5	5
O=C(O)CCc1nc(-c2ccc(Cl)cc2)no1	0%	3	7	1.5	-43
COc1ccc(-n2ncc3c(=O)n(Cc4c(F)cccc4Cl)cnc32)cc1	-2%	-1	3	-5.4	.
O=C(c1ccc2c(c1)OCO2)N1CCCC1	-5%	-1	0	0.1	-161
O=C(COc1ccc(S(=O)(=O)N2CCCCC2)cc1)NCC1CCCO1 (stereo not given)	8%	0	0	1.0	.
Nn1c(SCc2cn3cc(Cl)ccc3n2)nnc1-c1ccncc1	-2%	-3	4	-3.0	.
O=C1CSC(c2cn(-c3ccccc3)nc2-c2cc3ccccc3oc2=O)N1Cc1ccccc1 (stereo not given)	8%	-8	-6	6.5	0
Cc1ccc(S(=O)(=O)Nc2cc(=O)[nH]c(SCc3ccccc3Cl)n2)cc1	-3%	6	9	1.9	-34
CN(CC(=O)Nc1ccc(F)cc1)C(=O)COC(=O)Cc1cccs1	.	-9	.	-2.8	.

Molecules from the list above with a Cl atom, in the order listed:
SMILES	Mtb growth	Mtb betalactam	Arbovirus inh	RecA splice inh	YopH inh
O=C(c1cccs1)N(c1cccc(Cl)c1)C1C=CS(=O)(=O)C1 (stereo not given)	5%	5	10	1.0	.
COc1ccc(N2C(=O)CC(N3CCC(O)(c4ccc(Cl)cc4)CC3)C2=O)cc1 (stereo not given)	-13%	-8	4	-2.3	-22
Cc1cccc(C)c1NC(=O)C(Cl)C(=O)c1ccccc1 (stereo not given)	.	11	.	11	.
CN1CCN(C(=S)Nc2cccc(Cl)c2)CC1	-4%	-5	6	-5.3	-29
CCCc1cc(=O)oc2c(CN(CC)CC)c(O)c(Cl)cc12	5%	-4	.	-139	.
CCN1CCN(C(=S)c2ccc(Cl)c(Cl)c2)CC1	-5%	1	4	-0.5	5
O=C(O)CCc1nc(-c2ccc(Cl)cc2)no1	0%	3	7	1.5	-43
COc1ccc(-n2ncc3c(=O)n(Cc4c(F)cccc4Cl)cnc32)cc1	-2%	-1	3	-5.4	.
Nn1c(SCc2cn3cc(Cl)ccc3n2)nnc1-c1ccncc1	-2%	-3	4	-3.0	.
Cc1ccc(S(=O)(=O)Nc2cc(=O)[nH]c(SCc3ccccc3Cl)n2)cc1	-3%	6	9	1.9	-34
